Mtb bLac sens = beta-lactam sensitization of Mtb H37Rv; M. tuberculosis H37Rv growth with meropenem, percent inhibition; hits of this screen are not shown here; inhibition, % at 25 µM; hit rate 0.27% among 330,000;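 active = about 74% or more and at least 40 points above the plate without the antibiotic, then above 30% in a dose series; inconclusive = first-round hits that could not be retested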;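 also: growth measured after seven days incubation then overnight dye step; 0% = bacteria only wells and 100% = bacteria with antibiotic; twin plates without the antibiotic show which effects depend on it; some results filed as inactive read as strong as hits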
Numbers without * were called inactive; ? = inconclusive. Some of the compounds tested; count on the stated rates, not on these rows.

SMILES	Mtb bLac sens
CCOC(=O)[C@@H]1[C@H]2COc3cc(OC)ccc3[C@H]2N2C(=O)N(c3ccc(C(F)(F)F)cc3)C(=O)[C@]12C	100
COC(=O)C1=C(c2ccc(OC(F)(F)F)cc2)C[C@@H]2CC[C@H]1N2C(=O)N1CCCC1	9
CCN(CC)C(=O)c1nc[nH]c1C(=O)N1CCN(C(=O)OC(C)(C)C)CC1	1
Cc1cccc(Nc2ccc(S(=O)(=O)N3CCOCC3)cc2[N+](=O)[O-])c1	-15
CC(Sc1nnc(CN2CCCC2)n1Cc1ccccc1)C(=O)Nc1ccccc1 (stereo not drawn)	-14
CCN(C(=O)C(C)OC(=O)c1nn(-c2ccccc2C(F)(F)F)cc1O)c1ccccc1 (stereo not drawn)	-8
COc1ccc2c(c1)[C@H]1[C@H](CO2)[C@H](c2ccccc2)[C@]2(C)C(=O)Nc3ccc(F)cc3C(=O)N12	6
CC(=O)Nc1cc(NC(C)=O)cc(C(=O)OCC(=O)N(c2ccccc2)C2CCS(=O)(=O)C2)c1 (stereo not drawn)	1
C[C@H]1CN([C@@H](C)CO)C(=O)c2cccc(NC(=O)c3ccc(-c4nccs4)cc3)c2O[C@@H]1CN(C)C(=O)NC1CCCCC1	6
C=CCn1c(SCC(=O)Nc2c(C)n(C)n(-c3ccccc3)c2=O)nc2ccccc2c1=O	-5
Cc1nn(-c2ccccc2)c2[nH]c(=O)cc(C(F)F)c12	1
CN=C(C[N+](=O)[O-])NCCSCc1ccc(CN(C)C)o1	-1
CC[C@@]1(C(=O)OC)N[C@H](CN(C)S(=O)(=O)c2ccc(-c3ccccc3)cc2)[C@@H]2C(=O)N(C)C(=O)[C@@H]21	-8
COc1ccc(OC)c(S(=O)(=O)N2CCN(CC(O)COc3ccccc3)CC2)c1 (stereo not drawn)	-8
CC[C@@H]1C=C(C(=O)O)[C@H](c2ccc(C)cc2)N1S(=O)(=O)c1ccc(C)cc1	0
COc1ccc(NC(=O)Cn2c(=O)n(CCC(=O)NCC3CCCO3)c(=O)c3cc(OC)c(OC)cc32)cc1 (stereo not drawn)	-3
O=C1N[C@@H](c2ccccc2)COC(=O)[C@@H](Cc2ccc(F)cc2)CC/C=C/C[C@H]1CC(=O)N(CCO)Cc1ccccc1	0
CC1CC(C)CN(CC(O)COC2CC(C)CC(C)(C)C2)C1 (stereo not drawn)	-7
COc1ccccc1C(C)NC(=O)CCNC(=O)c1ccc(Cl)cc1 (stereo not drawn)	3
CN(c1ccccc1)S(=O)(=O)c1ccc(C(=O)N2CCCC2)cc1	-2
C#C[C@]1(O)CCC2C3C(CC[C@@]21C)[C@@]1(C)CC[C@@H](O)CC1=C[C@H]3O (stereo partly drawn)	7
COC(=O)C1OC(OC2CC[C@]3(C)C(CC[C@@]4(C)[C@@H]3CC=C3[C@@H]5CC(C)(C)CC[C@]5(C(=O)OC5OC(CO)C(O)C(O)C5O)CC[C@]34C)C2(C)C)C(O)C(O)C1O[C@H]1OCC(O)C(O)C1O (stereo partly drawn)	1
Cc1ccc(S(=O)(=O)N2CCC(C(=O)OCC(=O)NCc3cccc(Cl)c3)CC2)cc1C	6
C[C@H]1COC(=O)[C@H](CC(=O)OC(C)(C)C)C/C=C\C[C@@H](CC(=O)N(CCO)Cc2ccccc2)C(=O)N1	1
COc1ccc(OCc2cc(C(=O)NCCN3CCCc4ccccc43)no2)c(Cl)c1	-1

Remaining list, next part
SMILES	Mtb bLac sens
CCOC(=O)C1CCCN(C(=O)CNC(=O)c2ccc(Br)o2)C1 (stereo not drawn)	-7
C[C@@H](NC(=O)c1[nH]cnc1C(=O)Nc1ccc(Cl)cc1)c1ccccc1	98
OCCc1ccc(O)cc1	-6
CCC[C@@H](CN1CCC[C@H]1CN1C(N)=NC[C@H]1C(C)C)N1C[C@@H]([C@H](C)CC)N(CCCC2CCCC2)C1=N	81
O=C(Nc1ccc(Cl)cc1)C1C2C=CC3(O2)C1C(=O)N(CCN1CCCCC1)C3C(=O)NC1CCCCC1 (stereo not drawn)	-2
COc1ccc(NC(=O)CN(Cc2ccco2)Cc2ccco2)cc1S(=O)(=O)N1CCCCC1	-9
Cc1ccc(/C=C/C(=O)OCC(=O)Nc2cccnc2Cl)cc1	-4
CC(OC(=O)CNC(=O)c1sc2ccccc2c1Cl)C(=O)NC1(C#N)CCCCC1 (stereo not drawn)	-4
C[N+]1(C)C2CC(OC(=O)[C@H](CO)c3ccccc3)CC1C1OC12 (stereo partly drawn)	4
CCC1(c2ccccc2)ON(c2c(Br)cccc2Br)C1=O (stereo not drawn)	97
CC(C)Cn1c(CCC(N)=O)nnc1SC(C)C(=O)Nc1ccc2c(c1)OCO2 (stereo not drawn)	-8
CC1CCCCC12NC(=O)N(CC(=O)NCc1ccco1)C2=O (stereo not drawn)	-4
C=C[C@H]1CN2CC[C@H]1C[C@H]2[C@H](O)c1ccnc2ccccc12	-5
NS(=O)(=O)c1cccc(Nc2nc3ccccc3nc2NS(=O)(=O)c2ccc(Cl)cc2)c1	-1
Cc1ccc(CN2CC(C(=O)N3CCN(c4ccccc4Cl)CC3)CC2=O)cc1 (stereo not drawn)	-12
COc1ccc(CNC(=O)COC(=O)c2cc(S(=O)(=O)N3CCOCC3)ccc2O)cc1OC	-1
Cc1ccc(CNC(=O)COC(=O)C2CCC2)cc1	-3
CCCN(CC(=O)Nc1ccccc1C)C(=O)/C=C/c1ccc(OCC)c(OC)c1	-2
Cc1ccc2nc(NC(=O)COC(=O)c3cccnc3)sc2c1	8
Cc1csc(NC(=O)c2cc(C)on2)n1	10
Cc1ccc(S(=O)(=O)N2[C@@H](c3ccc(F)cc3)C(C(=O)O)=CC[C@H]2c2ccc(Cl)cc2)cc1	0
O=c1ccc2cc(OC3O[C@H](CO)[C@@H](O)[C@H](O)[C@H]3O)c(O)cc2o1 (stereo partly drawn)	6
COc1ccc(C(=O)NNC(=O)COC(=O)c2sccc2C)cc1	-3
Cc1ccc(C(=O)NCC(=O)N(C)CC(=O)Nc2ccccc2Br)s1	-5
CC1CN(S(=O)(=O)c2cccc(C(=O)NCc3ccco3)c2)CC(C)O1 (stereo not drawn)	-4

Further structures.
SMILES	Mtb bLac sens
O=C(CN1CCOCC1)NNC(=O)c1ccc(Cl)cc1	-3
CC(C)c1ccc(NC(=O)CN2C(=O)NC3(CCCCCCC3)C2=O)cc1	-6
Cc1cnc(NC(=O)CSCc2c(C)noc2C)s1	-4
CCCN(CC(=O)Nc1ccccc1C)C(=O)c1ccc(-c2ccc([N+](=O)[O-])cc2)o1	0
COC(=O)C1=C(c2ccc(Cl)c(C(F)(F)F)c2)C[C@@H]2CC[C@H]1N2C(=O)NCCOc1ccccc1Cl	-10
Nn1c(SCC(=O)NC2CCS(=O)(=O)C2)nnc1-c1ccco1 (stereo not drawn)	-3
Nn1c(SCC(=O)NC2CCS(=O)(=O)C2)nc2scc(-c3ccccc3)c2c1=O (stereo not drawn)	-1
CCOc1ccc(NS(=O)(=O)c2ccc(C(=O)N(C)Cc3cccc(OC)c3OC)cc2)cc1	-5
O=C(C[n+]1cccc(C(=O)N/N=C/c2ccc(Br)cc2)c1)c1ccccc1	-4
CCc1ccccc1NC(=O)CN1CCN(C(=O)CCC(=O)N2CCC(c3ccccc3)=N2)CC1	-5
CN1CCCN(S(=O)(=O)c2cccc(C(F)(F)F)c2)c2nc3ccccc3nc21	-3
CC(=O)c1c(C)[nH]c(C(=O)Nc2cccc(S(=O)(=O)N3CCCCC3)c2)c1C	-4
C[C@H]1CN([C@@H](C)CO)C(=O)c2cccc(NC(=O)Nc3ccc(C(F)(F)F)cc3)c2O[C@@H]1CN(C)Cc1ccc(Cl)c(Cl)c1	0
CC1CCN(C(=S)NC(=O)c2ccc(F)cc2)CC1	65
O=C(OCCN1C(=O)c2ccccc2C1=O)C1CC(O)CN1S(=O)(=O)c1ccc(Cl)cc1 (stereo not drawn)	-10
O=C(Cn1nc(C(=O)O)c2ccccc2c1=O)Nc1ccc(Cl)c(S(=O)(=O)N2CCOCC2)c1	-3
CN(CCO)C(=O)c1c(NC(=O)c2ccccc2)sc2c1CCCC2	-9
CC12CCC(=O)N1C(C(=O)NNC(=O)COc1ccccc1Cl)CS2 (stereo not drawn)	1
C[C@H](CO)N1C[C@H](C)[C@@H](CN(C)Cc2ccc(C(=O)O)cc2)Oc2c(NC(=O)c3ccncc3)cccc2C1=O	-10
CC1(C)C(=O)N(CCN2CCC(C(=O)c3ccc(F)cc3)CC2)c2ccccc21	-8
O=C(NC1CCOCC1)C1CCC(=O)N(Cc2ccc(Cl)cc2)C1 (stereo not drawn)	-2
O=C(NCCCn1ccnc1)c1ccc(-c2cccc(C(F)(F)F)c2)o1	-4
O=C(c1ccc([N+](=O)[O-])o1)N(Cc1nnc(-c2ccccc2Cl)o1)C1CC1	?
N#Cc1ccsc1NC(=O)CCN1C(=O)C2CCCCC2C1=O (stereo not drawn)	-2
Cc1noc(C)c1C(=O)Nc1nc2ccc(F)cc2s1	60

Laid out differently: entries from further up
smiles: CC1CC(C)CN(CC(O)COC2CC(C)CC(C)(C)C2)C1 (stereo not drawn)
  Mtb bLac sens: -7

smiles: O=C(NCCCn1ccnc1)c1ccc(-c2cccc(C(F)(F)F)c2)o1
  Mtb bLac sens: -4

smiles: CCC1(c2ccccc2)ON(c2c(Br)cccc2Br)C1=O (stereo not drawn)
  Mtb bLac sens: 97

Further results:
SMILES	Mtb bLac sens
O=C(NC1=NCCS1)C1CCN(S(=O)(=O)c2ccccc2C(F)(F)F)CC1	-9
O=C(CN1C(=O)NC2(CCCCCCC2)C1=O)NCc1ccc(Cl)cc1	5
O=C(CN1C(=O)c2ccccc2S1(=O)=O)Nc1ncc(Cl)cc1Cl	-5
O=C(CN(Cc1ccco1)Cc1ccco1)Nc1cc(S(=O)(=O)N2CCCCC2)ccc1Cl	-1
COc1cc(C(=O)NC(=S)N(CCC#N)Cc2cccnc2)cc(OC)c1OC	2
Cc1ccc(-c2nn(-c3ccccc3)cc2C(=O)NC2CCC(O)CC2)cc1 (stereo not drawn)	-5
Cc1nccn1CCCNC(=O)c1nc(Cn2cc([N+](=O)[O-])cn2)no1	2
Cc1cc(=O)[nH]c(SCC(=O)NC2CCCCCCC2)n1	0
CC(=O)C[C@H](O)CC(=O)[C@H]1OC(=O)[C@@H](C)C/C=C\Cc2ccccc21	-2
CCOc1ccc(-c2nnc(SCC(=O)N3CCNC3=O)o2)cc1	-4
CC(C)(C=O)Cc1cc(C(C)(C)C)c(O)c(C(C)(C)C)c1	0
CCC1(c2ccccc2)NC(=O)N(CC(=O)N(C)CC(=O)Nc2ccc(F)c(F)c2F)C1=O (stereo not drawn)	-5
CCCCn1c(N)c(N(CCC(C)C)C(=O)CSc2nncn2-c2ccccc2)c(=O)[nH]c1=O	-8
CC(=O)Nc1sc2c(c1C(N)=O)CCN(Cc1ccccc1)C2	1
O=C(c1ccc(Cl)c(S(=O)(=O)N2CCCCC2)c1)N1CCCC(C(F)(F)F)C1 (stereo not drawn)	-6
COc1ccc(NC2CCCN(C(=O)c3ccc(C)c(N4CCNC4=O)c3)C2)cc1 (stereo not drawn)	?
CCN(CC)Cc1ccccc1CNC(=O)c1cccc(S(=O)(=O)Nc2ccc3c(c2)OCO3)c1	3
COC12CCC3(CC1C(C)(O)C(C)(C)C)[C@H]1Cc4ccc(O)c5c4[C@@]3(CCN1CC1CC1)C2O5 (stereo partly drawn)	-1
COc1ccc(NC(C)=O)cc1NC(=O)c1cccc(S(=O)(=O)N2CCN(Cc3ccccc3)CC2)c1	-5
COc1ccc(NC(=O)COC(=O)CNC(=O)c2cccs2)cc1Cl	-5
COc1ccc(C(=O)OCC(=O)NCC2CCCO2)c(F)c1 (stereo not drawn)	2
CCCn1c(N)c(N2CCCCC2)c(=O)n(CC(=O)Nc2ccccc2C(F)(F)F)c1=O	-4
CCC1(c2ccccc2)NC(=O)N(CC(=O)N2CC(=O)Nc3ccccc32)C1=O (stereo not drawn)	-5
CCOc1ccc(CCNC(=O)COC(=O)c2oc3ccccc3c2COC)cc1OCC	2
Cc1c(Cc2ccccc2)c(=O)oc2cc(OCC(=O)NCC3CCC(C(=O)O)CC3)ccc12 (stereo not drawn)	-4

Remaining list, next part.
SMILES	Mtb bLac sens
CCc1nc2ccc(C(=O)N(CC)CC(=O)Nc3c(F)cccc3F)cc2nc1CC	-6
O=C(COC(=O)C1CC(=O)N(Cc2ccco2)C1)Nc1nc(-c2ccc(F)cc2)cs1 (stereo not drawn)	7
O=C(CSc1ncccn1)Nc1ccc2c(c1)OCO2	-8
O=C1CN(C(=O)COC(=O)Cc2ccccc2F)c2ccccc2N1	1
COc1cc(SC)ccc1C(=O)Nc1nc(C)cc(C)n1	1
O=C(CN1C(=O)NC2(CCOc3ccccc32)C1=O)c1ccc(Br)cc1 (stereo not drawn)	-12
Cc1cccc(OC(C)C(=O)Nc2cc(Cl)ccc2-n2cncn2)c1 (stereo not drawn)	4
O=C(c1ccco1)N1CCN(C(=O)c2ccc(-c3ccccc3Cl)o2)CC1	-1
Cc1cc(C(=O)NNC(=O)c2ccc(C)s2)c(C)o1	-2

Four of these compounds, reformatted:
> O=C(NC1=NCCS1)C1CCN(S(=O)(=O)c2ccccc2C(F)(F)F)CC1
  Mtb bLac sens: -9
> O=C(CN1C(=O)NC2(CCCCCCC2)C1=O)NCc1ccc(Cl)cc1
  Mtb bLac sens: 5
> O=C(CN1C(=O)c2ccccc2S1(=O)=O)Nc1ncc(Cl)cc1Cl
  Mtb bLac sens: -5
> O=C(CN(Cc1ccco1)Cc1ccco1)Nc1cc(S(=O)(=O)N2CCCCC2)ccc1Cl
  Mtb bLac sens: -1

5 compounds drawn at random from those above, as already listed:
SMILES	Mtb bLac sens
O=C(c1ccco1)N1CCN(C(=O)c2ccc(-c3ccccc3Cl)o2)CC1	-1
O=C(CN1C(=O)NC2(CCOc3ccccc32)C1=O)c1ccc(Br)cc1 (stereo not drawn)	-12
Cc1cccc(OC(C)C(=O)Nc2cc(Cl)ccc2-n2cncn2)c1 (stereo not drawn)	4
CCc1nc2ccc(C(=O)N(CC)CC(=O)Nc3c(F)cccc3F)cc2nc1CC	-6
COc1cc(SC)ccc1C(=O)Nc1nc(C)cc(C)n1	1

Screening data from PubChem.
